Kir21 block: Kir2.1 (mouse) channel inhibition; HEK293-Kir2.1, FluxOR thallium flux fluorescence; stronger effect = lower value; B-score at 10 µM; actives 0.85% (n = 310,000); AID 1672;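 active means fluorescence ratio B-score at or below minus 3 SD of library scores, with starting-brightness B-score within 2 SD, cut at about -4.2 in these data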;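 further: channel flux triggered by added potassium and thallium sulfate stimulus; B-score of peak minus minimum fluorescence over baseline after thallium stimulus; more negative B-score means stronger Kir2.1 block with less thallium influx; some compounds called inactive have numbers as strong as hits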
Target sequence (P35561 whole entry, looked up): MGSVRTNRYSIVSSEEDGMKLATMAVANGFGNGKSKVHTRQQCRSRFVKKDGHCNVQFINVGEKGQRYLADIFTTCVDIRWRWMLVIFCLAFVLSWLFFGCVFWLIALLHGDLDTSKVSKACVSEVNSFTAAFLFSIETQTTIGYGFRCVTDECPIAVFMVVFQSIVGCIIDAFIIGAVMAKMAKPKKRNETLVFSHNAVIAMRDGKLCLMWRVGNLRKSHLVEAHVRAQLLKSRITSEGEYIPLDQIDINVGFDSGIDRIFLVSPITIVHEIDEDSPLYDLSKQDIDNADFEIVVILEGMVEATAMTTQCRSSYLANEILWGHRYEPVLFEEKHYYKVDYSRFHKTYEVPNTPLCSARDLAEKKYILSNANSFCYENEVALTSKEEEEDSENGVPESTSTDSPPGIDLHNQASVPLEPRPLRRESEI
STK33 inh: blocks human STK33 kinase activity; purified STK33, MBP phosphorylation, ADP-Glo luminescence; Q9BYT3; actives 0.073% (n = 320,000); inhibition, % at 10 µM;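 active means inhibition at or above 25%, using the most active replicate where run in duplicate; inactive means inhibition below 25%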
Target sequence (Q9BYT3 whole entry, looked up): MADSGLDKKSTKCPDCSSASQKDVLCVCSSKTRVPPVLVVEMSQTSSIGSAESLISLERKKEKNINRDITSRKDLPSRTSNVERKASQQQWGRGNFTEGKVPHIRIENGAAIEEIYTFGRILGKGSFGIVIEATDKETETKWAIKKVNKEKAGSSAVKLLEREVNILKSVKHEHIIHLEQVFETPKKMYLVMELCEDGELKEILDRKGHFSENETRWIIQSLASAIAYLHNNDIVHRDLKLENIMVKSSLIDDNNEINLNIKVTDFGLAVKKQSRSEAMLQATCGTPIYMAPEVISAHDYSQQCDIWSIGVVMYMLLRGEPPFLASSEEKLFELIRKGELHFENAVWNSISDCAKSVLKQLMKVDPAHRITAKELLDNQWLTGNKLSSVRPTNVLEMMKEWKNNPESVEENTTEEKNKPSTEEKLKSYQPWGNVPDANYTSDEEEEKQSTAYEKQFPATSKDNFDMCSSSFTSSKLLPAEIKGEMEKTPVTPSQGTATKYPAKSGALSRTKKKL
* marks the source's active call; other numbers are inactive results.

Start of the data: the first 4 entries, to show the layout:
How did O=C(/C=C/c1cccc(F)c1)N1CCc2ccccc21 do in these assays?
Kir21 block: 1.1; STK33 inh: -0.3

Results for COC(=O)C1Cc2ccccc2CN1S(=O)(=O)c1ccc(F)cc1 (configuration not stated) ?
Kir21 block: -2.7; STK33 inh: -1.2

How did COc1ccccc1NS(=O)(=O)c1cc2c3c(c1)CC(=O)N3CCC2 do in these assays?
Kir21 block: 0.37; STK33 inh: -1.5

How did O=C(Cn1c(NCCCO)nc2ccccc21)c1ccc(Cl)cc1 do in these assays?
Kir21 block: -0.07; STK33 inh: 1.5

Main list, previewed entries included:
How did O=C(/C=C/c1cccc(F)c1)N1CCc2ccccc21 do in these assays?
Kir21 block: 1.1; STK33 inh: -0.3

Results for COC(=O)C1Cc2ccccc2CN1S(=O)(=O)c1ccc(F)cc1 (configuration not stated) ?
Kir21 block: -2.7; STK33 inh: -1.2

How did COc1ccccc1NS(=O)(=O)c1cc2c3c(c1)CC(=O)N3CCC2 do in these assays?
Kir21 block: 0.37; STK33 inh: -1.5

How did O=C(Cn1c(NCCCO)nc2ccccc21)c1ccc(Cl)cc1 do in these assays?
Kir21 block: -0.07; STK33 inh: 1.5

How did Cc1ccc(CNC(=O)C2CCCCN2S(=O)(=O)c2ccccc2)cc1 (configuration not stated) do in these assays?
Kir21 block: 1; STK33 inh: -1.4

What do the screens show for `CCCCCN(C(=O)CCC(=O)OCCOc1cccc(C)c1)c1c(N)n(CCCC)c(=O)[nH]c1=O`?
Kir21 block: -0.16; STK33 inh: -0.4

How did Cc1cccc(N2C(=O)CC(Sc3ncn[nH]3)C2=O)c1 (configuration not stated) do in these assays?
Kir21 block: 0.78; STK33 inh: 1.2

How did Cc1ccccc1NP(=O)(c1ccccc1)c1nc2ccccc2s1 (configuration not stated) do in these assays?
Kir21 block: -0.71; STK33 inh: -1.2

How did CC12CCC(=O)N1C(C(=O)Nc1cccc(S(=O)(=O)N3CCCCCC3)c1)CS2 (configuration not stated) do in these assays?
Kir21 block: -0.15; STK33 inh: 4.1

What do the screens show for `CCOC(=O)Cn1cc(/C=N/NC(=O)c2ccc(C#N)cc2F)c2ccccc21`?
Kir21 block: 1.3; STK33 inh: 0.2

How did COc1cc(-c2nc(S(=O)(=O)c3ccc(C)cc3)c(N(C)C)o2)cc(OC)c1OC do in these assays?
Kir21 block: -0.01; STK33 inh: -0.3

What do the screens show for `Cc1cccc(C(=O)NNC(=O)C23CC4CC(CC(C4)C2)C3)c1O`?
Kir21 block: 0.18; STK33 inh: -0.4

What do the screens show for `CC(=O)c1c(C)nc(-c2ccc(OCC(=O)Nc3ccc(F)cc3)cc2)n1O`?
Kir21 block: -0.01; STK33 inh: -2.3

Results for CCOC(=O)C1CCCN(S(=O)(=O)c2nc3nc(C)cc(C)n3n2)C1 (configuration not stated) ?
Kir21 block: 1.3; STK33 inh: -2.2

How did COC(=O)c1ccccc1OCC(=O)N1CCN(c2ccc(F)cc2)CC1 do in these assays?
Kir21 block: -1.1; STK33 inh: -1.7

How did Cc1ccc(S(=O)(=O)CC(O)COc2ccccc2C#N)cc1 (configuration not stated) do in these assays?
Kir21 block: -2.6

How did CC1Cc2ccccc2N1C(=O)CSc1nnc(CNc2ccccc2)o1 (configuration not stated) do in these assays?
Kir21 block: 0.01; STK33 inh: 0.3

What do the screens show for `COc1cc(/C=C2\CCC(C3CCCC3)C2=O)cc(OC)c1OC` (configuration not stated)?
Kir21 block: 2; STK33 inh: 0.2

Results for Nc1cc(=O)[nH]c(=O)n1-c1ccc(Cl)cc1 ?
Kir21 block: 0.48; STK33 inh: -0.3

What do the screens show for `Cc1cccc(C(=O)N2CCCC(Nc3ccc(C(C)C)cc3)C2)n1` (configuration not stated)?
Kir21 block: -1.2

Results for C=CCn1c(SCCC#N)nnc1-c1ccncc1 ?
Kir21 block: 0; STK33 inh: -2.6

What do the screens show for `O=C(CSc1ncnc2nc[nH]c12)c1ccc2ccccc2c1`?
Kir21 block: -0.46; STK33 inh: 2.2

How did Cc1ccc(C)c(N2CCN(C(=O)CCNS(=O)(=O)c3ccc4c(c3)oc(=O)n4C)CC2)c1 do in these assays?
Kir21 block: -0.1; STK33 inh: -0.7

Results for Fc1ccc(Nc2nc(NCc3ccco3)c3ccccc3n2)cc1 ?
Kir21 block: -3.9; STK33 inh: 5.5

What do the screens show for `CC1CCN(C(=O)C2CCN(S(=O)(=O)N3CCC4(CC3)OCCO4)CC2)CC1`?
Kir21 block: -0.03; STK33 inh: -0.7

Results for CC(=O)Nc1nc2c(s1)C(=O)NCCC2 ?
Kir21 block: 0.56; STK33 inh: 2.8

How did CCn1c(SCc2cc(=O)[nH]c3ccccc23)nnc1C1CC1 do in these assays?
Kir21 block: 0.88; STK33 inh: 0.3

Results for CC(C)NC(=O)/C(=C/c1ccco1)c1ccccc1 ?
Kir21 block: -1.1; STK33 inh: -0.4

How did CNC(=O)Nc1cccc2cccnc12 do in these assays?
Kir21 block: -0.91; STK33 inh: 1.3

How did Cn1cccc1/C=C1\CCC/C(=C\c2cccn2C)C1=O do in these assays?
Kir21 block: -8.6; STK33 inh: -0.2

How did O=C(CC1CCCCC1)NCc1ccccc1 do in these assays?
Kir21 block: 2.2; STK33 inh: -1.4

How did CCCCOc1ccc(-c2nnn(CC(=O)c3c[nH]c4ccccc34)n2)cc1 do in these assays?
Kir21 block: 0.08; STK33 inh: -0.4

How did COc1ccc(OC)c(C(=O)c2ccc(C(=O)N3CCCCC3)cc2)c1 do in these assays?
Kir21 block: 1; STK33 inh: 0.1

What do the screens show for `CCCc1nc(SCC(N)=O)[nH]c(=O)c1CC`?
Kir21 block: 0.42; STK33 inh: -0.4

How did COc1ccc(NC(=O)CN(c2ccc([N+](=O)[O-])cc2)S(=O)(=O)c2ccccc2)c(OC)c1 do in these assays?
Kir21 block: 2.5; STK33 inh: 0.1

Results for COC(=O)c1ccc(C)c(NC(=O)CCSc2ccc(Cl)cc2)c1 ?
Kir21 block: 1.3; STK33 inh: -1.3

What do the screens show for `COc1ccccc1C1NC(c2ccccc2OC)C(C)C(=O)C1C` (configuration not stated)?
Kir21 block: -1.1

Results for Cc1cccc(NC(=S)NCCc2ccccn2)c1 ?
Kir21 block: -0.94; STK33 inh: 0.3

How did CC12CN3CC(C)(CN(C1)C3c1ccc(Br)cc1)C2 (configuration not stated) do in these assays?
Kir21 block: -1.5; STK33 inh: -0.8

How did Cc1noc(COc2ccccc2OCC(O)CNC(C)(C)C)n1 (configuration not stated) do in these assays?
Kir21 block: 2.4; STK33 inh: -1.6

What do the screens show for `CS(=O)(=O)N(CC(=O)NCCSCc1ccco1)c1ccc(Cl)cc1`?
Kir21 block: -1; STK33 inh: 0.8

Results for Cc1ccc(S(=O)(=O)N2CCCC(C(=O)NC3CCCC3)C2)cc1Cl (configuration not stated) ?
Kir21 block: 0.3; STK33 inh: -0.5

How did Cc1nc(SCC(=O)NC(=O)NC2CCCCC2)nc(C)c1C do in these assays?
Kir21 block: 0.15; STK33 inh: -1.3

Results for CC(C)CC1Nc2ccc(C(=O)NCc3ccc4c(c3)OCO4)cc2NC1=O (configuration not stated) ?
Kir21 block: -0.73; STK33 inh: -0.6

What do the screens show for `COc1ccc(N2C(=O)c3ccc(C(=O)Nc4ccccc4OC)cc3C2=O)cc1`?
Kir21 block: 0.22; STK33 inh: 0.6

What do the screens show for `O=C(CCN1C(=O)c2ccccc2C1=O)NCCC1=CCCCC1`?
Kir21 block: -0.02; STK33 inh: -0.7

Results for CCc1ccc2c(c1)Sc1ccccc1CC2N1CCN(C)CC1 (configuration not stated) ?
Kir21 block: -2.9; STK33 inh: 0.5

What do the screens show for `CCOc1cc(N2CCOCC2)c(OCC)cc1NC(=O)C1=NN(c2cccc(C)c2)C(=O)CC1`?
Kir21 block: 0.37; STK33 inh: -2.2

Results for Cc1ccc(O)c(C(=O)c2cc(C#N)c(=O)n(-c3c(C)n(C)n(-c4ccccc4)c3=O)c2)c1 ?
Kir21 block: -0.88; STK33 inh: -1.5

What do the screens show for `Cc1cc(C(=O)COC(=O)c2ccc[nH]c2=O)c(C)n1-c1ccccc1F`?
Kir21 block: 0.19; STK33 inh: 1.2

Results for COc1ccc(NC(=O)Cc2coc3cc(C)c(C(C)C)cc23)cc1S(=O)(=O)N1CCOCC1 ?
Kir21 block: 0.23; STK33 inh: -2.0

How did COc1c(O)cccc1/C=N/NC(=O)Cn1ccnc1C do in these assays?
Kir21 block: 0.06; STK33 inh: -0.7

How did CCNc1nc(Oc2ccc(C(=O)OCC)cc2)nc(SC)n1 do in these assays?
Kir21 block: 1.5; STK33 inh: 1.0

What do the screens show for `CCCNc1nc2c(c(=O)n(C)c(=O)n2C)n1CCC(C)C`?
Kir21 block: 0.23; STK33 inh: -0.2

Results for COc1ccc(CCn2c(=O)[nH]c3cc(C(=O)N4CCN(c5ccccn5)CC4)ccc3c2=O)cc1OC ?
Kir21 block: 0.14; STK33 inh: -1.7

Results for C1CN(c2nc3nonc3n3nnnc23)CCO1 ?
Kir21 block: -1.3; STK33 inh: 0.0

Results for C=CCOc1ccccc1C1NC(=O)NC(C)=C1C(=O)NCc1ccccc1 (configuration not stated) ?
Kir21 block: 0.42; STK33 inh: -0.1

How did CC(Sc1ccccc1)C(=O)NN=C1CCCCCCC1 (configuration not stated) do in these assays?
Kir21 block: -1.4; STK33 inh: -0.5

What do the screens show for `C=CCOc1ccc(C2/C(=C(\O)c3ccc(F)cc3)C(=O)C(=O)N2CCCN(C)C)cc1` (configuration not stated)?
Kir21 block: 0.31; STK33 inh: 0.1

How did Cc1ccc(C)c(Cn2nc3c4ccccc4n(Cc4ccccc4)cc-3c2=O)c1 do in these assays?
Kir21 block: 0.9

3 entries drawn at random from those above, as already listed:
Results for C1CN(c2nc3nonc3n3nnnc23)CCO1 ?
Kir21 block: -1.3; STK33 inh: 0.0

How did CCNc1nc(Oc2ccc(C(=O)OCC)cc2)nc(SC)n1 do in these assays?
Kir21 block: 1.5; STK33 inh: 1.0

What do the screens show for `CCOc1cc(N2CCOCC2)c(OCC)cc1NC(=O)C1=NN(c2cccc(C)c2)C(=O)CC1`?
Kir21 block: 0.37; STK33 inh: -2.2

Next section.
Results for CC(=O)Oc1ccc(Cl)cc1/C=C/c1ccc2ccccc2n1 ?
Kir21 block: 0.04; STK33 inh: 1.7

What do the screens show for `COc1ccccc1OCc1ccc(C(=O)NC(C)(C)C)o1`?
Kir21 block: 0.02; STK33 inh: -0.3

Results for CC1COc2ccccc2N1C(=O)c1ccc(Cl)cc1 (configuration not stated) ?
Kir21 block: -1; STK33 inh: -1.3

Results for Cc1ccc2c(c1)[nH]c1c(N3CCN(Cc4ccccc4)CC3)ncnc12 ?
Kir21 block: -0.07; STK33 inh: 1.5

How did O=C1C2(c3ccccc3)CN(CCCO)CC1(c1ccccc1)CN(CCCO)C2 do in these assays?
Kir21 block: -0.65; STK33 inh: 0.0

How did Cc1cc(=O)n(C)c2ccc(S(=O)(=O)N3CCOCC3)cc12 do in these assays?
Kir21 block: 0.01; STK33 inh: 0.8

Results for CCOc1ccccc1N1CC(C(=O)Nc2nccs2)CC1=O (configuration not stated) ?
Kir21 block: -0.68; STK33 inh: -1.9

How did CCc1ccccc1NC(=O)c1ccc(CN2CCC(Cc3ccccc3)CC2)cc1 do in these assays?
Kir21 block: -2; STK33 inh: -2.4

Results for COC(=O)CCC(=O)N1CCC(CCC(=O)NCc2ccc(F)cc2)CC1 ?
Kir21 block: 0; STK33 inh: -2.0

What do the screens show for `Cc1ccc(-n2nnc3c(=O)n(CC(=O)OCc4ccccc4)cnc32)cc1`?
Kir21 block: -1.2; STK33 inh: 0.4

What do the screens show for `Cc1ccc(SCc2cn3c(C)cc(C)nc3n2)cc1`?
Kir21 block: 0.27; STK33 inh: 0.8

Results for CCC1CCCCN1C(=O)Nc1cccc(NC(=O)N2CCCCC2CC)c1 (configuration not stated) ?
Kir21 block: -0.84; STK33 inh: 0.0

How did CCc1ccccc1N(CC(=O)NC(C)(C)CC)C(=O)CCC(=O)Nc1nccs1 do in these assays?
Kir21 block: -0.1; STK33 inh: -5.0

How did COc1ccc(-c2[nH]c(-c3ccccc3)nc2SCC(=O)NC2CCCC2)cc1 do in these assays?
Kir21 block: -0.21; STK33 inh: -0.3

What do the screens show for `O=C(CCNS(=O)(=O)c1ccccc1F)N1CCN(C/C=C/c2ccccc2)CC1`?
Kir21 block: 0.19; STK33 inh: -1.9

Results for CS(=O)(=O)N(Cc1ccccc1)c1ccc(C(=O)Nc2ccccc2Sc2ccccc2)cc1 ?
Kir21 block: -1.1; STK33 inh: -0.7

Results for CC1=CC(C)(C)Nc2ccc(OC(=O)CCN3C(=O)c4ccccc4C3=O)cc21 ?
Kir21 block: -0.11; STK33 inh: -2.8

Results for CCSc1nnc(NC(=O)NC(C)(C(F)(F)F)C(F)(F)F)s1 ?
Kir21 block: 0.04; STK33 inh: -0.7

Results for COc1ccc(Cl)cc1NC(=O)Cn1nnc(C(=O)NCCc2ccc(OC)c(OC)c2)c1N ?
Kir21 block: 0.26; STK33 inh: -2.6

Results for COc1ccccc1OCCn1cc(/C=N/NC(=O)c2ccncc2)c2ccccc21 ?
Kir21 block: 1.4; STK33 inh: -0.8

How did COc1ccc(N2C(=O)CCC(C(=O)NCc3ccccn3)C2c2ccc(OC)c(OC)c2)cc1 (configuration not stated) do in these assays?
Kir21 block: 0.28; STK33 inh: -0.4

What do the screens show for `O=C(CSc1cccc2cccnc12)N/N=C/c1ccncc1`?
Kir21 block: -0.01; STK33 inh: -0.7

Ordered by count of non-hydrogen atoms (smallest number first): part of the list above
Results for CC(=O)Nc1nc2c(s1)C(=O)NCCC2 ?
Kir21 block: 0.56; STK33 inh: 2.8

Results for Fc1ccc(Nc2nc(NCc3ccco3)c3ccccc3n2)cc1 ?
Kir21 block: -3.9; STK33 inh: 5.5

Results for CC(C)CC1Nc2ccc(C(=O)NCc3ccc4c(c3)OCO4)cc2NC1=O (configuration not stated) ?
Kir21 block: -0.73; STK33 inh: -0.6

The list is partial, and most or all hits are left out here.
